PrP 5UTR inh: inhibition of PrP 5' UTR reporter expression; 340,000 compounds, 0.35% hits; inhibition, % (no concentration beside the values); AID 488862; cell-based PrP 5' UTR mRNA reporter, plate reader;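 active = every replicate at 50% or more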;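 also: 0 = median of the neutral control wells; tested in H4 reporter cells; numbers are from one replicate; inactives centre near -14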
Sa ugtP lethal: compounds lethal to S. aureus RN4220 ugtP deletion mutant; growth inhibition, % (test concentration not listed); 330,000 compounds, 0.54% hits; OD600 growth, 16 h; some inactives read as strong as hits;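 active = z-score under -3 and OD600 up to 0.15 on both plates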;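 also: plate controls were untreated wells for no effect and antibiotic for full effect; wells of about 80 µL received 100 nL stock; the first replicate is given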
BJeLR viability: BJeLR cell viability loss; BJeLR (HRASV12) viability, CellTiter-Glo ATP luminescence, 48 h; reference of the scale not given here; inhibition, % (no concentration beside the values); 300,000 compounds, 0.17% hits;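 active = replicate mean above 50%; inconclusive = above 50% but judged a plate artefact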;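 also: 50 nL library stock added to about 25 µL; numbers are from one replicate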
Bead autofluor: compound fluorescence in toxin protease inhibitor counterscreen | compound autofluorescence counterscreen, microsphere flow cytometry; active compounds read high | AID 624483 | fluorescence intensity (no concentration beside the values) | 360,000 compounds, 3.1% hits;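 active = at least 3 SD above the mean of all compounds, about 16000 in these data; inconclusive = too few beads counted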;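 also: 100 nL of 1 mM stock went into each well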
Sa RN4220 lethal: kills Staphylococcus aureus RN4220 | S. aureus RN4220 growth, OD600, 16 h | inhibition, % (no concentration beside the values) | 330,000 compounds, 0.33% hits | AID 1259311;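 active = z-score of -3 or lower and OD600 up to 0.18 on both plates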;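 also: plate controls were untreated cells for no effect and reference antibiotic for full effect; stock transfer was 100 nL into about 80 µL; one replicate is shown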
Mtb hypoxia inh: inhibitors of hypoxia-regulated fluorescent reporter in Mycobacterium tuberculosis; M. tuberculosis hypoxia-regulated fluorescent reporter, fluorescence; fluorescence inhibition, % (concentration not given with the values); 300,000 compounds, 0.1% hits; AID 1159583;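 active = 35 to 45% if threefold the growth effect, above 45% if 1.5-fold the growth effect; inactive = the rest, general growth blockers included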;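 also: wells of about 50 µL received 100 nL stock; 0% = vehicle wells and 100% = reference inhibitor wells; whole bacteria with a GFP reporter of the hypoxia response; strong numbers were not always called active; many hits fall short of the cut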
Mtb hypoxia inh growth: recorded beside Mtb hypoxia inh, whose call it bears; growth inhibition, %; measured here: M. tuberculosis growth (absorbance);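 0% = vehicle and 100% = reference antibiotic; read after six days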
The depositor's hits bear a star; ? = inconclusive; / = not tested or not shown. An unsorted share of the library; 4% or so of the library scored in one or more.

SMILES	PrP 5UTR inh	BJeLR viability	Sa RN4220 lethal	Mtb hypoxia inh	Mtb hypoxia inh growth	Sa ugtP lethal	Bead autofluor
O=C(O)c1ccc2c(=O)n3c(nc2c1)/C(=C/c1cccc(O)c1)CC3	-16.0	1.4	3.8	3.6	-7.8	9.3	3995
Cc1nc(-c2ccccc2)sc1C1(C)CC(c2cccc(F)c2)=NO1 (stereo not drawn)	-10.4	-0.8	5.8	9.9	7.2	10.1	3985
COc1ccc(CC(=O)Nc2ccc(S(=O)(=O)N3CCCCC3)cc2)cc1OC	12.8	-1.7	0.5	-4.9	-1.5	7.5	4272
Cc1ccc(S(=O)(=O)NCC(=O)N2CCCCC2)cc1	-8.0	8.6	4.7	9.8	10.4	-3.0	4090
COc1ccc(COC(=O)NN=C(C)CC(=O)NCc2ccc(Cl)cc2)cc1	/	/	2.9	17.7	-4.8	5.8	/
Cc1[nH]n(-c2ccccc2)c(=O)c1C(c1cccc([N+](=O)[O-])c1)c1c(C)[nH]n(-c2ccccc2)c1=O	-27.8	-4.6	-2.0	10.7	12.4	10.2	1910
COc1ccccc1C(CNC(=O)c1ccc(NS(=O)(=O)c2ccc(F)c(C)c2)cc1)N(C)C (stereo not drawn)	-1.6	6.6	-3.3	-7.3	7.9	-2.9	6042
O=C(O)CNC(=O)CC12CC3CC(CC(C3)C1)C2	-13.4	2.8	1.9	/	/	0.6	2385
NNC(=O)Cc1csc(-c2ccccc2)n1	-20.4	4.8	3.4	4.8	5.0	8.4	?
CC(=O)c1c(OC(=O)c2ccco2)c2ccccc2n1C	-14.1	2.2	-12.6	-5.5	-1.4	-4.0	2503
Cc1cccc(C)c1OCC(=O)NCc1nnc(SCC(=O)NC2CCCCC2)n1C	-22.1	-2.0	-1.5	4.1	2.0	-5.2	22773*
CC1CC(C)CN(C(=O)COC(=O)c2ccc([N+](=O)[O-])o2)C1 (stereo not drawn)	-26.4	/	0.5	0.2	-0.3	8.2	8698
Cc1ccn2c(NCc3ccc4c(c3)OCO4)c(-c3ccc(O)cc3)nc2c1	-21.5	-8.1	1.1	3.7	1.0	3.1	17253*
O=C(CNS(=O)(=O)c1ccc([N+](=O)[O-])cc1)NN=Cc1ccc(O)cc1O	/	/	-2.1	13.5	5.1	8.9	/
COc1ccc(CCCCCCOCc2ccccc2)cc1	-8.7	/	8.7	13.1	4.0	10.1	3436
CCc1ccc(C(=O)CN(C#N)c2nc(C)cc(C)n2)cc1	-5.0	-4.8	1.9	/	/	2.5	4294
CC(=O)c1sc2c(c1OC(=O)c1ccc(Cl)cc1Cl)c(=O)n(-c1ccccc1)c(=S)n2-c1ccccc1	75.8*	40.4	-3.2	8.2	6.1	34.2	3914
O=C1c2ccccc2C(=O)N1c1cccc2ccccc12	-10.0	-0.2	5.6	14.0	5.1	4.6	/
CC(=NNc1ncc(Cl)cc1Cl)c1ccc(S(=O)(=O)NCc2ccco2)cc1	/	/	3.2	3.2	7.5	-17.6	/
Cc1nc(SCC(=O)c2ccc(F)cc2)n[nH]1	-55.0	-1.0	4.7	4.1	10.9	-10.2	21307*
Cc1ccc(C)c(NC(=O)Cn2nc(C)c3ccccc3c2=O)c1	-26.1	12.3	1.5	2.0	-3.1	3.5	9157
COc1ccc(N=C2S/C(=C\c3cccs3)C(=O)N2CC(C)C)cc1	-16.4	-0.5	/	/	/	/	3357
Cc1ccc(-c2csc(N3C(=N)SCC3=O)n2)cc1	/	0.4	3.9	6.5	1.1	14.5	/
O=C(O)/C=C\c1cc2c(cc1[N+](=O)[O-])OCO2	-0.4	-12.2	4.8	5.5	6.6	5.5	3615
COC(=O)C1=C(C)NC2=C(C(=O)CC(C)(C)C2)C1c1cnn(C)c1C (stereo not drawn)	-5.5	-5.4	0.9	11.9	0.1	7.2	2522
COC(=O)CN1C(=O)C(C)(C)Oc2ccc(C(=O)Nc3ccccc3F)cc21	-15.1	-21.0	-1.8	1.4	-0.8	1.2	3050
COc1ccccc1NC(=S)N1CCCCCC1	-4.0	-3.6	0.1	-6.6	11.8	-1.2	5965
CCCOc1cccc(C2/C(=C(/O)c3ccc(OC)cc3)C(=O)C(=O)N2CCN(C)C)c1 (stereo not drawn)	-8.2	-2.4	-1.4	/	/	1.5	3272
O=C(CN(C(=O)CCC(=O)Nc1ccccn1)c1ccc2c(c1)OCO2)NCc1ccco1	-7.2	-0.6	-0.9	/	/	5.6	2411
CCn1c(SCC(=O)Nc2cc(C)on2)nnc1-c1ccncc1	-25.7	16.9	2.5	12.4	-3.4	2.6	10279

Pulled by compound from the list above:
SMILES	PrP 5UTR inh	BJeLR viability	Sa RN4220 lethal	Mtb hypoxia inh	Mtb hypoxia inh growth	Sa ugtP lethal	Bead autofluor
CC(=NNc1ncc(Cl)cc1Cl)c1ccc(S(=O)(=O)NCc2ccco2)cc1	/	/	3.2	3.2	7.5	-17.6	/
CC(=O)c1c(OC(=O)c2ccco2)c2ccccc2n1C	-14.1	2.2	-12.6	-5.5	-1.4	-4.0	2503

Copied from above, 3 compounds:
SMILES	PrP 5UTR inh	BJeLR viability	Sa RN4220 lethal	Mtb hypoxia inh	Mtb hypoxia inh growth	Sa ugtP lethal	Bead autofluor
O=C(O)c1ccc2c(=O)n3c(nc2c1)/C(=C/c1cccc(O)c1)CC3	-16.0	1.4	3.8	3.6	-7.8	9.3	3995
Cc1nc(-c2ccccc2)sc1C1(C)CC(c2cccc(F)c2)=NO1 (stereo not drawn)	-10.4	-0.8	5.8	9.9	7.2	10.1	3985
COc1ccc(CC(=O)Nc2ccc(S(=O)(=O)N3CCCCC3)cc2)cc1OC	12.8	-1.7	0.5	-4.9	-1.5	7.5	4272

Next section:
SMILES	PrP 5UTR inh	BJeLR viability	Sa RN4220 lethal	Mtb hypoxia inh	Mtb hypoxia inh growth	Sa ugtP lethal	Bead autofluor
O=C(CN1C(=O)NC2(CCCC2)C1=O)NCCc1ccc(F)cc1	-14.4	/	2.3	4.1	0.1	3.6	3204
O=C1c2cccc3cccc(c23)C(=O)N1CCCc1n[nH]c(=S)n1-c1ccccc1	-11.5	3.8	2.7	1.2	3.7	6.4	3318
Nc1ccc(C(=O)Nc2ccc3nc(-c4cccnc4)[nH]c3c2)cc1	-11.0	8.5	20.8	11.0	9.4	15.7	2459
Cn1c(N)c(C(=O)CSc2nnc(C3CC3)n2N)c(=O)n(C)c1=O	-18.8	/	1.4	1.8	-0.3	1.5	8711
Cn1c(=O)c2cc(S(=O)(=O)NCCC(=O)Nc3ccc(Cl)cc3)ccc2n(C)c1=O	/	4.1	1.0	-10.9	-3.2	1.1	10505
Cc1ccc(Cn2c(-c3nonc3N)nc3ccccc32)cc1	-8.5	2.0	-0.4	/	/	0.6	3934
CCOC(=O)C1=C(c2ccccc2)NC(SCC(N)=O)=C(C#N)C1c1cccnc1 (stereo not drawn)	-17.6	-2.9	5.2	-2.1	12.2	-4.0	19434*
CC(OCC(O)CN(C)Cc1nc2ccccc2c(=O)[nH]1)c1ccc(Cl)cc1 (stereo not drawn)	-3.3	-5.8	-1.8	-5.6	7.7	-11.8	3227
Cc1ccc(S(=O)(=O)N2CCCSCC2)cc1	-12.4	6.7	0.6	/	/	-4.7	5221
Cc1cccn2c(=O)c(/C=C(\C#N)S(=O)(=O)c3ccccc3)c(N3CCN(C)CC3)nc12	-5.9	0.7	-1.9	/	/	-3.5	2651
COC(=O)CSc1nnc(-c2ccc(S(=O)(=O)NCc3cccs3)cc2)o1	-38.1	/	6.1	4.1	9.4	3.9	21213*
CCSC1=NCCN1S(=O)(=O)c1ccc(NC(C)=O)cc1	-23.5	2.3	2.1	-5.0	2.7	0.3	2587
CC12CCC(C(=O)N3CCC(Cc4ccccc4)CC3)(C(=O)C1=O)C2(C)C (stereo not drawn)	-23.4	0.8	-3.9	9.8	2.0	6.2	2591
N/C(=N\OC(=O)c1cccc(Cn2cc(C(F)(F)F)ccc2=O)c1)c1ccc(Cl)cc1	-48.1	-2.9	-1.8	6.0	6.0	-9.8	4131
CC(C)[C@H](NC(=O)c1ccccc1)C(=O)OCC(=O)N1CCN(C(=O)c2ccco2)CC1	1.6	7.4	/	/	/	/	3183
CN(C)CCCn1c2c(c(SCC(=O)Nc3nccs3)nc1=O)CCC2	-24.5	11.6	0.0	-4.9	-4.9	9.4	4785
COc1cccc(NC(=O)C2CCN(S(=O)(=O)c3ccccc3)CC2)c1	-3.6	11.2	2.5	5.3	-12.6	4.5	4079
CCN(CC)S(=O)(=O)c1cccc(NC(=O)c2cncc(Br)c2)c1	-21.7	-1.1	9.8	1.8	7.9	14.6	4919
CCOc1ccc(NC2=CC(=O)CCC2)cc1	0.0	-5.5	0.3	-7.5	-3.5	-3.1	3109
COc1ccc(C)cc1NC(=O)C1CCCCC1C(=O)O (stereo not drawn)	-5.7	-7.7	1.2	-1.4	4.3	-4.1	9326
COc1ccc(C2CC(c3ccc4ccccc4c3)=NN2C(=O)CN2CCC(C(N)=O)CC2)cc1 (stereo not drawn)	-32.2	-1.3	-6.2	-3.3	10.8	4.0	4432
CC(C)(C)c1ccc(C(=O)Nn2c(CCC(=O)O)ccc2-c2cccs2)cc1	-6.5	-0.1	12.1	13.8	-6.3	4.3	17160*
COC(=O)c1ccc(N2C(=O)C3CC(C)=C(C)CC3C2=O)cc1 (stereo not drawn)	-26.9	7.6	1.9	-0.1	11.2	4.9	4377
COC(=O)C1=C(c2ccc(OC(F)(F)F)cc2)CC2CCC1N2C(=O)NC1Cc2ccccc2C1 (stereo not drawn)	/	/	-3.8	4.5	5.4	-20.6	/
O=C(NN=Cc1ccc(Br)s1)c1ccccn1	/	/	5.2	3.0	3.3	-6.0	/
Cc1ccc(C)c(/C=N/Nc2ccccn2)c1	-45.2	-3.4	/	/	/	/	3918
CN(/N=C/c1cc([N+](=O)[O-])ccc1O)c1ccccc1	-23.8	-1.1	/	/	/	/	2126
O=C(NC1CCCCCCC1)C1CCN(c2nc3ccccc3o2)CC1	-0.7	-29.6	3.6	-2.7	-3.4	11.2	17616*
Cc1cc(C)n(C(=O)c2ccc(C)c(F)c2F)n1	-2.5	0.2	3.4	5.0	2.2	18.6	2125
CCOC(=O)c1c(C2CCN(C(=O)OCC)CC2)nc2ccccn12	-11.1	-4.1	6.5	11.3	6.1	10.6	5857

Some of the entries above in another layout.
Below each SMILES: PrP 5UTR inh, BJeLR viability, Sa RN4220 lethal, Mtb hypoxia inh, Mtb hypoxia inh growth, Sa ugtP lethal, Bead autofluor
CC(C)(C)c1ccc(C(=O)Nn2c(CCC(=O)O)ccc2-c2cccs2)cc1
 : -6.5, -0.1, 12.1, 13.8, -6.3, 4.3, 17160*
COC(=O)c1ccc(N2C(=O)C3CC(C)=C(C)CC3C2=O)cc1 (stereo not drawn)
 : -26.9, 7.6, 1.9, -0.1, 11.2, 4.9, 4377
COC(=O)C1=C(c2ccc(OC(F)(F)F)cc2)CC2CCC1N2C(=O)NC1Cc2ccccc2C1 (stereo not drawn)
 : /, /, -3.8, 4.5, 5.4, -20.6, /
O=C(NN=Cc1ccc(Br)s1)c1ccccn1
 : /, /, 5.2, 3.0, 3.3, -6.0, /
Cc1ccc(C)c(/C=N/Nc2ccccn2)c1
 : -45.2, -3.4, /, /, /, /, 3918

(more compounds)
SMILES	PrP 5UTR inh	BJeLR viability	Sa RN4220 lethal	Mtb hypoxia inh	Mtb hypoxia inh growth	Sa ugtP lethal	Bead autofluor
CCOC(=O)C1=C(COC(=O)/C=C/c2cccc(Cl)c2)NC(=O)NC1C (stereo not drawn)	-2.1	4.7	-2.1	3.6	1.5	-11.5	5757
Cc1ccc(CNCc2ccco2)cc1	-7.9	7.3	3.1	-5.7	0.5	5.0	4093
COc1cccc2sc(NNC(=O)COc3ccccc3)nc12	-21.4	-7.9	3.7	13.8	-2.4	3.2	4336
O=C(CSc1ncn[nH]1)NN=Cc1ccc(C(F)(F)F)cc1	/	/	1.1	0.2	-6.1	1.2	/
Cc1cccc(NC(=O)c2ccc(S(=O)(=O)N(C)c3ccccc3)cc2)n1	-82.9	/	-2.0	-18.0	8.4	-10.8	4062
CCOC(=O)c1sc(SC)c2c1CCCC2=NOC	/	/	3.1	10.0	13.4	10.5	/
Cn1cc(C(=O)N2CCN(C(=O)c3ccco3)CC2)c2c3ccccc3n(C)c2c1=O	1.2	-21.2	1.6	8.1	-0.5	5.7	15406
COc1ccc(NC(=O)NCCCN2CCCC2=O)cc1	-16.5	-12.4	-0.2	/	/	-3.9	4524
CCOC(=O)c1sc(SC)c2c1CCCC2=O	-7.3	-8.1	6.7	12.7	9.4	2.2	4174
